Screening results as filed in PubChem BioAssay.
gsp antag – antagonists of gsp mutant (McCune-Albright syndrome). Potency, µM (doses to about 76.9 µM), for the others: at the highest dose activity change, negative = inhibition, actives largely listed as inhibitors. gsp-mutant cells, cAMP HTRF, 30 min; control for the full effect not named in the record. AID 624288. actives 0.4% (n = 340,000); active = falling curve of any shape with a large fitted effect; inconclusive = falling curve, mostly with a smaller effect; inactive = flat or rising curve; cell line not stated here;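 note: intracellular cAMP measured with PDE inhibitor Ro 20-1724 present during compound exposure; potency is the fitted concentration of half-maximal effect; % is set by controls: 0 for no effect and ±100 for the full control effect; nearly all actives have a fitted effect of over 65% in size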
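G418-selected cells were plated in DMEM/10% FBS for 16-24 h at 37C, then treated with compounds plus the PDE inhibitor […] (300 uM solution added) for 30 min at 37C. Intracellular cAMP was measured by HTRF after 30 min lysis at room temperature.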
gsp agonist – agonists of gsp mutant (McCune-Albright syndrome) | gsp mutant cells, cAMP HTRF, 30 min; control for the full effect not named in the record | Potency, µM (doses to about 76.9 µM), inactives show at the top dose activation (cAMP increase), hits mostly activators | actives 0.13% (n = 340,000); active = well fitted activation curve with a large enough effect; inconclusive = small, poorly fitted or top-dose-only effect, or another doubt; inactive = no such curve, though single readings can be large or run the other way; cell line not stated here;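 note: phosphodiesterase inhibitor Ro 20-1724 added with compounds to block cAMP breakdown; potency is the fitted concentration of half-maximal effect; nearly all actives have a fitted effect of over 60% in size; about a fifth of the inactives were tested at one dose only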
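Cells stably selected in G418 were plated at 2000/well, grown 16-24 hr, then given compounds in DMSO with the PDE inhibitor […] (300 uM solution added) for 30 min at 37C; cAMP was read by HTRF.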
TRPML1 blocker – blocks the human TRPML1 channel | actives 0.02% (n = 390,000) | TRPML1-inducible cells, Ca2+ dye fluorescence, FDSS; active compounds read low; inhibition of EC80 agonist-evoked calcium signal | activity change, negative = inhibition, % (concentration not given with the values); in the data active means activity change below about -50%; inconclusive means about -30% to -50%; inactive means above about -30%;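 note: stimulus is agonist 54-4 at its EC80 concentration; % is set by controls: 0 for no effect and ±100 for the full control effect; the text of the record puts the active cut at -80%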
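TRPML1-DL cells, Tet-induced overnight (~16 h, 37 °C) at 1,500 cells/well, were loaded with Ca8 no-wash dye plus quencher for 45-90 min at room temperature. Compounds were pinned during FDSS kinetic reading; agonist 54-4 at EC80 (4 uM final) then added.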
Menin-MLL FL inh – menin-MLL binding inhibition, fluorescein peptide | Fluorescence polarization, fluorescein-MLL peptide displacement from menin | FP activity change, % at 61.4 µM | 290,000 tested, under 10 active | AID 1766; inconclusive = falling polarisation curve, or a change in total fluorescence; inactive = total fluorescence flat and polarisation flat or rising; no compound was filed as active; the % refers to the polarisation; negative = inhibition;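 note: % of control where 0% means no effect; inhibitors lower the polarisation; unlabelled MLL peptide was the positive control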
ClpP mod – qHTS Assay for Activators of ClpP. Potency, µM (highest dose often 57.5 µM), for inactives: at the top dose activity change, negative = active. ATP-dependent Clp protease proteolytic subunit (Bacillus subtilis (strain 168)), P80244. purified B. subtilis ClpP, FRET peptide cleavage, 20 min. actives 1.9% (n = 340,000); active = well fitted falling curve with a large enough effect; inconclusive = small, poorly fitted or top-dose-only effect; inactive = no such curve, though single readings can be large or run the other way; note: potency is the fitted concentration of half-maximal effect; the source files actives as falling curves though it sought activators and does not explain the sign; nearly all actives have a fitted effect of over 65% in size; many hits overshoot -100%
Target sequence (P80244 whole entry, looked up): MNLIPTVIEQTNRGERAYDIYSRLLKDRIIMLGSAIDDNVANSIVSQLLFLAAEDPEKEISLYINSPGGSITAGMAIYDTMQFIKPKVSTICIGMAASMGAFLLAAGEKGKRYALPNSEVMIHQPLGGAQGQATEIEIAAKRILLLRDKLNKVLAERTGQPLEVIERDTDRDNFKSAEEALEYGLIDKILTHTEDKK
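FRET quenching reversal measured ClpP activation: 10 microg/mL B. subtilis ClpP at pH 8 with the FRET-FV decapeptide, read at 430 nm after 320 nm excitation. The 20-min minus 0-min signal was scaled between DMSO/no-enzyme wells and ADEP (5.8 microM final).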
Sfp inh – inhibitors of Bacillus subtilis Sfp phosphopantetheinyl transferase. Q9F4F7. Biochemical Sfp PPTase activity, qHTS. Potency, µM, inactives show max response, negative = inhibition, hits mostly inhibitors. actives 3.5% (n = 310,000). AID 1490; active = well fitted inhibition curve with a large enough effect; inconclusive = small, poorly fitted or top-dose-only effect, or another doubt; inactive = no such curve, though single readings can be large or run the other way;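 note: the enzyme is Sfp with the accession as filed and its product quenches rhodamine fluorescence; potency is the fitted concentration of half-maximal effect; 0% = enzyme reaction without inhibitor and -100% = no enzyme wells; top concentration of the series not given in the record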
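Fluorescence-quenching assay: 15 nM Sfp-PPTase preincubated 15 min at room temperature with compound, then 5 uM rhodamine-CoA and 12.5 uM BHQ-2-labelled YbbR peptide added. Fluorescence (ex 525/em 598 nm) read at start and after 30 min; difference gives rate.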
TRPV1 PAM – enhances activation of the human vanilloid receptor TRPV1; Q8NER1; TRPV1-expressing cells, Fluo-8 calcium influx, capsaicin EC20 potentiation; host cell line not named in the record; control for the full effect not named in the record; potentiation, % at 8.33 µM; actives 0.02% (n = 320,000); AID 540277; active means potentiation above 80%; inconclusive means 30% to 80%; inactive means below 30%; note: 0% is about no effect
Target sequence (Q8NER1 whole entry, looked up): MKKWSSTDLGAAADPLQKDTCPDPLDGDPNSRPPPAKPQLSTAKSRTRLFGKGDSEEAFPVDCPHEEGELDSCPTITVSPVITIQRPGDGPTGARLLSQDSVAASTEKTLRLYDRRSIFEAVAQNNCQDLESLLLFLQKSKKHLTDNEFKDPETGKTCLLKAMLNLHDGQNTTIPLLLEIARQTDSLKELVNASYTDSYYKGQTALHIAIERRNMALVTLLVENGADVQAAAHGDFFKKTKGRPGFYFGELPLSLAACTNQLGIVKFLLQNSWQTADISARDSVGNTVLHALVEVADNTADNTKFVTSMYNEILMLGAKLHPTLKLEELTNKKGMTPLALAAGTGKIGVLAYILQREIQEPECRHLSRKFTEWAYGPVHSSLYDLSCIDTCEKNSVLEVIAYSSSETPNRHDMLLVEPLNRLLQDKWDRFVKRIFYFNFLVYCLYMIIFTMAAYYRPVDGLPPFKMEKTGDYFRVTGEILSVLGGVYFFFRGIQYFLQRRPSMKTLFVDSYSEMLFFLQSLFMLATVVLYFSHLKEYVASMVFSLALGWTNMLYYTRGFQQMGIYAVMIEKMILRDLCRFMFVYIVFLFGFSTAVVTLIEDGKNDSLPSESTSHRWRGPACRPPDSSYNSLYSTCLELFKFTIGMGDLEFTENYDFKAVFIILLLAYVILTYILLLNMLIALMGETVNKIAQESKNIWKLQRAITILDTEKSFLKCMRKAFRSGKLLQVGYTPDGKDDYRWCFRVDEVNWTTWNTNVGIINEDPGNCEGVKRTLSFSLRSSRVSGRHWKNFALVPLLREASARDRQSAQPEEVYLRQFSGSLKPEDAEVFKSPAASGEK
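Cells expressing TRPV1 were dye-loaded with Fluo-8 and read kinetically: 10 s baseline, 3 min after compound (agonist portion), then 2 min after EC20 capsaicin (allosteric enhancer portion). Calcium-bound dye fluorescence at 480/520 nm.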
Numbers without * were called inactive; u = inconclusive; x = no result given; & = joins results of further samples; [ ] = remark or other dose.

nr	mol	gsp agonist	Sfp inh	ClpP mod	TRPV1 PAM	TRPML1 blocker	Menin-MLL FL inh	gsp antag
1	O=C(NC1CC1)c1ccc2c(c1)NC(=O)c1ccccc1S2	x	-5%	x	-9	x	-2.0	x
2	Cc1oc(-c2cccc(Cl)c2)nc1CS(=O)(=O)CC(=O)NCCN1CCCC1	-35%[inhibitor]	5%	-6.1%	1	-10	2.8	6%
3	COc1cc2c(cc1OC)CN(C(=O)c1cccs1)CC2	12%	-25%	-0.3%	13	-8	0.6	3%
4	CC/C(=N\O)c1ccc(O)c(OC)c1	8%	8%	-1.9%	-3	13	2.3	4%
5	CN1CCN(NC(=O)/C=C/c2ccc(Br)cc2)CC1	2%	4%	-2.6%	-15	-5	x	13%
6	COc1ccc(-c2nc(N)n(C(=O)c3ccco3)n2)cc1	-11%	-17%	u	13	13	0.3	8%
7	CSCc1ccc(C(=O)N2CCC(N3CCC(C(=O)NC(C)C)CC3)CC2)o1	u	4%	-8.2%	27	15	-4.4	6%
8	O=C(CCS(=O)(=O)c1ccc(Cl)cc1)NC1CCCC1	-2%	x	1.6%	x	12	x	4%
9	Cc1cc(C)c(S(=O)(=O)N2CCCOC2CNC(=O)C(=O)NCCc2c[nH]c3ccccc23)c(C)c1 (stereo not drawn)	-33%[inhibitor]	1%	-2.0%	14	4	1.1	-8%
10	CC1CCCC(NC(=O)Cn2cc3c(n2)CCCCC3)C1C (stereo not drawn)	-18%	5%	1.6%	-25	-24	2.3	0%
11	COc1ccc(-c2cc(-c3ccc(C)cc3)n[nH]2)c(O)c1	u	-1%	-2.6%	-12	0	x	u
12	Cc1ccc([N+](=O)[O-])cc1N=C(c1cccc([N+](=O)[O-])c1)N1CCOCC1	-19%	23%	-1.4%	x	12	-0.7	u
13	CC(C)(C)c1ccc(C(=O)Nc2cccc3ncccc23)cc1	-16%	13%	-1.4%	6	-29	u	u
14	CC(=O)Nc1ccc(S(=O)(=O)N2CCN(CCCOc3cc(C)ccc3C)CC2)cc1	-29%	1%	-0.2%	-1	0	5.3	32µM*
15	c1ccc2cc(OCCOCCOc3ccc4ccccc4c3)ccc2c1	8%[15.4 µM]	9%	x	3	-1	1.6	0%
16	CCCS(=O)(=O)N1CCC(C(=O)N2CCN(C(=O)OCC)CC2)CC1	-6%	9%	-1.2%	-19	-2	-1.0	9%
17	CCOC(=O)C1CCN(C2CCN(Cc3nc(-c4ccccc4)no3)CC2)CC1	-1%[15.4 µM]	11%	x	9	5	1.9	-6%
18	COc1ccc2oc(C(=O)Nc3nccs3)c(C)c2c1	2%[15.4 µM]	x	x	-6	1	x	1%
19	O=S(=O)(c1ccccc1)N1CCN(Cc2ccccc2C(F)(F)F)CC1	u	-17%	1.6%	11	3	1.8	-6%
20	Cc1cc(C)n(-c2nc3c(c(=O)[nH]c(=O)n3C)n2CC(O)c2ccccc2)n1 (stereo not drawn)	0%	12%	-6.1%	-26	17	7.2	-3%
21	CCSc1nc(O)c(C2OC(=O)c3c2ccc(OC)c3OC)c(=O)n1CC (stereo not drawn)	21%	3%	2.2%	9	-8	-1.7	-5%
22	CCOc1ccc(N2CC(C(=O)NCc3ccc(C)n3C)CC2=O)cc1 (stereo not drawn)	21%[15.4 µM]	2%	x	0	-7	-9.3	-4%
23	Cc1ccc(C(C(=O)Nc2ccc(C(C)C)cc2)N(C)C(=O)c2ccc(=O)[nH]c2)cc1 (stereo not drawn)	-2%[15.4 µM]	-12%	x	-5	22	0.9	-4%
24	O=S(=O)(Nc1ccc2cn[nH]c2c1)c1ccc(C(F)(F)F)cc1	23%	x	0.7%	-2	11	x	5%
25	O=C(CCc1nnc(Cc2ccc3c(c2)OCO3)o1)NCc1nc2ccccc2s1	u	17%	4.7%	2	1	u	2%
26	CC(=O)Nc1nnc(SCc2ccccc2F)s1	0%	16%	0.7%	-7	-5	0.1	11%
27	Cc1ccc2cc(/C=C/C(=O)c3ccco3)c(Cl)nc2c1	6%[15.4 µM]	u	x	5	1	23	0%
28	COc1ccc(N2C(=O)CC3(CCCC3)CC2=O)cc1	-8%[15.4 µM]	8%	-5.9%	0	8	0.6	0%
29	COc1ccc(CN2CCn3nc(C(=O)NC(C)C)cc3C2=O)cc1	19%[15.4 µM]	9%	u	2	-4	-3.7	-1%
30	C[C@H]1CN([C@@H](C)CO)C(=O)CCCn2cc(nn2)CO[C@@H]1CN(C)C(=O)Nc1ccccc1C(F)(F)F	-19%	x	1.6%	x	24	x	x
31	CC(C)(O)C(=O)NN(Cc1ccccc1)c1ccccc1	0%[15.4 µM]	5%	x	8	-7	2.9	-13%
32	CCn1c(SCC(=O)NC2CCCCC2)nnc1-c1cccs1	u	14%	-2.5%	-8	-1	3.7	3%
33	COc1ccc(CN2CCN(C(=O)CCC(=O)c3ccc(C)s3)CC2)cc1OC	u	x	-1.8%	-5	-2	x	-2%
34	Cc1nc(NCc2ccccc2)c2cc[nH]c2n1	21%	-2%	1.8%	11	-11	-1.9	-2%
35	Cc1onc(-c2ccccc2)c1CNC(=O)CN1C(=O)c2ccccc2C1=O	-13%	17%	-1.0%	10	32	3.0	-6%
36	O=C(NN1CCOCC1)c1ccc(Cl)s1	-24%	-1%	x	-3	-2	-1.9	10%
37	C=C1CCN(C(Cc2ccccc2)C(=O)NCc2ccc(Cl)c(Cl)c2)S(=O)(=O)c2ccccc21 (stereo not drawn)	x	-18%	x	x	-2	-2.2	x
38	COc1cc(C(C(=O)NC2CCCCC2)N(C(=O)c2snc(C(N)=O)c2N)c2ccc(C)cc2)ccc1O (stereo not drawn)	7%[15.4 µM]	15%	-2.3%	12	11	-1.8	-12%
39	Cc1coc2cc3oc(=O)c(CCC(=O)NCCCN4CCCC4=O)c(C)c3cc12	-63%[inhibitor]	4%	4.7%	3	-4	-2.6	-3%
40	O=C(OCC(=O)N1CCC(c2ccccc2)=N1)c1ccc([N+](=O)[O-])s1	1%	x	-2.5%	10	15	x	-7%
41	Cc1nc2cc(CO)ccc2n1C	-3%	11%	-8.3%	0	-9	2.7	14%
42	Cc1occc1-c1nnc(SCC(=O)Nc2ccccc2)n1CCc1ccccc1	-13%	-5%	-11%	-15	0	2.9	-2%
43	COc1ccc(C(c2nnnn2Cc2ccccc2)N2CCN(c3ccccc3)CC2)cc1 (stereo not drawn)	2%	-8%	2.6%	-6	8	-5.1	-20%
44	CC(C)N1C(=O)c2ccccc2C1C(=O)NC1CCCCCC1 (stereo not drawn)	2%	-11%	-3.3%	0	-2	-3.5	3%
45	Cn1cc(C(=O)c2ccc(Cl)cc2Cl)cc1C(=O)N/N=C(\N)COc1ccccc1	-7%	13%	-2.3%	7	51	-3.0	-22%
46	Cc1ccc(NC(=O)OCCN2CCN(Cc3ccccc3)CCC2=O)cc1C	x	8%&13%	2.3%	-6	4	-3.7&2.1	10%
47	FC(F)(F)c1cccc(-c2nc3nc(Cl)c(Cl)nc3[nH]2)c1	23%	-12%	4.0%&4.4%	-27	-1	u	u
48	Cc1ccc2nc(COC(=O)CNC(=O)c3ccccc3)cn2c1	4%	x	-14%	1	1	x	-2%
49	COc1ccc(C(=O)CSc2nnc(CNC(=O)c3ccco3)n2C)cc1	8%[15.4 µM]	16%	5.4%	-15	-13	7.9	4%
50	CC(C)n1c(SCC(=O)N2CCCC2)nc2c1c(=O)n(C)c(=O)n2C	13%	29%	-4.0%	5	-3	2.6	10%
51	NC(=O)c1ccc(Nc2ccc3nonc3c2[N+](=O)[O-])cc1	-5%[15.4 µM]	3%	0.8%	1	42	3.6	-5%
52	CCOc1ccc(CN(CC)C(=O)c2ccc3c(c2)[nH]c(=O)c(=O)n3CC)cc1OC	-7%[15.4 µM]	13%	x	1	13	-8.8	14%
53	Cc1ccc(NC(=O)N2CCCC(c3nc(-c4ccc(F)cc4)no3)C2)cc1 (stereo not drawn)	-1%	9%	-1.1%	-6	1	1.0	-25%
54	COc1ccc(NC2CCCN(C(=O)COc3ccc(C)cc3)C2)cc1 (stereo not drawn)	-38%[inhibitor]	6%	-1.7%	0	-21	-1.2	-16%
55	C[C@H]1CN(CCc2ccccc2)C(=O)[C@@H]1CC(=O)NCc1ccccc1	x	7%	0.9%&3.3%	-13	-3	0.4	3%
56	Cc1nn(C)cc1CN(C)C(=O)CCc1nnc(CCC2CCCCC2)o1	3%	6%	-1.3%	3	0	5.7	1%
57	O=C(N/N=C/c1cccc([N+](=O)[O-])c1)C(=O)N1CCCCCC1	-14%[15.4 µM]	5%	0.2%	-2	-9	x	6%
58	COc1ccc(C(=O)NCCCN2CCOCC2)cc1	7%	5%	0.5%	4	32	5.4	7%
59	COc1ccc(S(=O)(=O)N2CCC(C(=O)NCc3ccncc3)CC2)cc1	u	21%	x	0	-5	x	1%
60	CCc1c(C)sc(NC(=O)CC#N)c1C#N	15%	32µM*	-18%	6	-14	u	-6%

(more compounds)
nr	mol	gsp agonist	Sfp inh	ClpP mod	TRPV1 PAM	TRPML1 blocker	Menin-MLL FL inh	gsp antag
61	NC(=O)CCn1c2ccccc2c2ccccc21	-21%[15.4 µM]	10%	x	7	6	0.7	12%
62	COc1cccc(C(=O)Nc2ncc3c(n2)CC(C)(C)CC3=O)c1	-9%	19%	-0.3%	-3	23	-1.0	3%
63	Cn1c(CC(=O)Nc2ccccc2Cl)nnc1SCC(=O)NC1CCCCC1	26%	2%	x	0	-11	1.0	5%
64	CCCNC(=S)NCCN1CCCCC1	-1%	u	-0.7%	-11	-30	1.7	33%[activator]
65	O=C(NCCCNC(=O)c1ccccc1Br)c1ccccc1Br	-35%	0%	0.8%	8	9	0.1	1%
66	Cc1ccc(Cl)c2sc(NC(=O)C3=COCCO3)nc12	2%	-8%	-13%	2	-7	x	-20%
